Assay outcomes (PubChem BioAssay)
Mtb MenB inh – M. tuberculosis MenB inhibitors, primary screen, biochemical, absorbance | AID 540299, 2011 | actives 0.43% (n = 100,000) | 1,4-dihydroxy-2-naphthoyl-CoA synthase (Mycobacterium tuberculosis (strain ATCC 25618 / … | inhibition, %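 (about 12 µg/mL by stock and volumes)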 | MenB enzyme assay, absorbance read-out; some hits fall short of the stated cut;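 active = mean of two replicates above 30%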;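 note: 0% = no compound and 100% = wells with inactive enzyme; the first replicate is given; strong numbers were not always called active; inactives centre near -10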
Polio RdRp inh – poliovirus RdRp elongation inhibitors, primary screen, biochemical, fluorescence polarization, total intensity; Genome polyprotein (Poliovirus type 1 (strain Mahoney)), P03300; poliovirus polymerase elongation; hits give low values; % elongation, % (compound at 16.7 µg/mL); actives 0.66% (n = 150,000); in the data active = % elongation below about 90%; note: some results filed as inactive read as strong as hits
Target sequence (P03300 1749-2209 limits assumed): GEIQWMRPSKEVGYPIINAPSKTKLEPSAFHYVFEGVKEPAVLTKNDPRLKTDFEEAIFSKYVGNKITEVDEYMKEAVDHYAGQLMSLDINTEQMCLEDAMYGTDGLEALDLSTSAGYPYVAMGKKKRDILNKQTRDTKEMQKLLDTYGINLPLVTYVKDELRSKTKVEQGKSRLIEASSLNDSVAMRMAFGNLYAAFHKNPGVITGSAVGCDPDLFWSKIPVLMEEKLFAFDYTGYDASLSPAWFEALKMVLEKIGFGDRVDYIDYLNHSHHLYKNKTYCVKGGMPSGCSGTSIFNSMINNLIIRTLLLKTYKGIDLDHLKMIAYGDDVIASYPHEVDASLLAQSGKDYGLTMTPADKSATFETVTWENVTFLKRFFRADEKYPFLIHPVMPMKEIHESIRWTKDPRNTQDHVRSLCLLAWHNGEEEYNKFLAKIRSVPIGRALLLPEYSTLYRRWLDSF
Mtb MbtI inh – MbtI salicylate synthase inhibitors, primary screen, biochemical, fluorescence intensity | P9WFX0 | purified MbtI enzyme, fluorescence intensity read-out | inhibition, %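 (about 17 µg/mL by stock and volumes)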 | actives 0.89% (n = 100,000) | AID 493033, 2011;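 active = above 50% in both replicates, above 80% if mildly self-fluorescent; inactive = the rest, strongly fluorescent compounds included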;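 note: 0% = mean of negative and 100% = mean of positive controls; one replicate is shown; some compounds called inactive have numbers as strong as hits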
Target sequence (P9WFX0 whole entry, looked up): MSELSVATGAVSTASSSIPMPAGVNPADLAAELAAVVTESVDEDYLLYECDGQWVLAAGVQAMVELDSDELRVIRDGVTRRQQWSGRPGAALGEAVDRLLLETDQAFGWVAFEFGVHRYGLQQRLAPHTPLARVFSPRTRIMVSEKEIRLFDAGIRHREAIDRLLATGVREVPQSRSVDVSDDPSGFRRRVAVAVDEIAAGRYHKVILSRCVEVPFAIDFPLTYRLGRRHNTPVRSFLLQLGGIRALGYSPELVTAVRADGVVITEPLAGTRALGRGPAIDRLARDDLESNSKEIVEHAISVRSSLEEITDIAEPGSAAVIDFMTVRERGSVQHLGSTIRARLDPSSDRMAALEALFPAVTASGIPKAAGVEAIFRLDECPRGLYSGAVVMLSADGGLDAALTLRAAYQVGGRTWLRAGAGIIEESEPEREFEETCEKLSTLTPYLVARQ
Polio RdRp inh intensity – also measured in Polio RdRp inh; calls as there; % elongation; measured here: total intensity read-out; formula for this scale not given here;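 total fluorescence in place of polarization; lower means less elongation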
Numbers without * were called inactive; i = inactive; · = not tested or not shown; & = joins results of further samples.

Value order: Mtb MbtI inh | Mtb MenB inh | Polio RdRp inh intensity | Polio RdRp inh
> c1ccc(-c2nc3c4ccccc4nc(NCCN4CCN(c5ccccc5)CC4)n3n2)cc1
→ 1 | -5 | 102 | 102
> O=C(NC1CCCCC1)N(Cc1cc2cc3c(cc2[nH]c1=O)OCCO3)C1CCCCC1
→ 0 | 17 | 102 | 100
> Cc1ccc2[nH]c(=O)c(CNc3ccc(N4CCCCC4)c(CO)c3)cc2c1
→ 1 | -7 | 102 | 103
> COC(=O)c1cc(OC)c(OC)cc1NC(C)=O
→ -17 | -24 | 108 | 108
> CCN(CC)c1ccc2cc(C(=O)NC3CCCCC3)c(=O)oc2c1
→ -12 | · | 106 | 102
> O=c1c2ccccc2nc2n1CCCCC2
→ 0 | 2 | 99 | 104
> COc1ccc(/C=c2/sc3nc4ccccc4n3c2=O)cc1OC
→ -3 | -8 | 103 | 104
> Cc1ccc(C23CCC(=O)N2C(C(=O)NCCc2ccccn2)CS3)cc1 (configuration not stated)
→ -2 | -7 | 109 | 106
> CC1S/C(=C/c2nc3ccccc3s2)NC1=O (configuration not stated)
→ -10 | · | 116 | 105
> O=C(c1scc2c1CCCC2)N1CCN(c2ccccc2O)CC1
→ · | -15 | 111 | 105
> O=C(NCC(c1ccco1)N1CCCCC1)c1ccc2c(c1)S(=O)(=O)c1ccccc1C2=O (configuration not stated)
→ 36 | 9 | 108 | 111
> CC(C)(C)c1ccc(=O)[nH]n1
→ -1 | -12 | 113 | 115
> Brc1ccc(C=NC2C3CC4CC(C3)CC2C4)cc1 (configuration not stated)
→ 15 | 0 | 100 | 103
> CC(CC1C(C#N)=C(N)OC2=C1C(=O)CCC2)c1ccccc1 (configuration not stated)
→ -11 | · | 95 | 98
> CSc1nc2ccccc2n1CC(=O)N1CCc2ccccc21
→ 1 | -6 | 110 | 104
> CCCn1c(SCC(=O)N(C2=CCCCC2)C2CC2)n[nH]c1=O
→ -6 | 2 | 99 | 102
> COCCCN1Cc2cccc(C(=O)O)c2C1=O
→ 0 | 11 | 97 | 101
> c1ccc2cc(Nc3ncnc4[nH]ncc34)ccc2c1
→ -8 | -24 | 105 | 102
> CCC(=O)C1(Sc2nc3ccccc3[nH]2)CC(C)(C)OC1=O (configuration not stated)
→ 102* | -10 | 101 | 102
> Cc1noc2ncnc(N3CCCC(C(=O)Nc4nccs4)C3)c12 (configuration not stated)
→ -14 | 1 | 104 | 102
> N#Cc1ccc(COC(=O)CCN2C(=O)COc3ccccc32)cc1
→ -8 | -23 | 105 | 99
> O=C1c2ccccc2C(=O)N1CNc1ccc(I)cc1
→ 3 | 2 | 105 | 104
> CSC1=C(C#N)C(c2ccc(Cl)cc2)CC(=O)N1 (configuration not stated)
→ -18 | -12 | 103 | 103
> Cc1ccc(-c2c[n+](=O)c3c(n2[O-])CCC3)cc1
→ 23 | 4 | 103 | 100
> CCOc1ccc(S(=O)(=O)NC(C)C(=O)NC2CCCC2)cc1 (configuration not stated)
→ -14 | 2 | 103 | 101
> CC(=O)Nc1nonc1NC(=O)c1ccc(C)cc1
→ · | -6 | 106 | 104
> S=C(NCCc1ccncc1)Nc1ccccc1
→ -2 | -13 | 104 | 100
> CCCCC[C@H](O)/C=C/C=C\C/C=C\C/C=C\CCCC(=O)O
→ -13 | 14 | 103&101 | 99&101
> c1ccc(-c2cccs2)nc1
→ 73 | -7 | 104 | 104
> N#C/C(=C\c1cc[nH]c1)C(N)=S
→ 38 | i | 80 | 101
> O=C(NCc1ccccc1F)c1ccc2c(=O)n(Cc3ccco3)c(=S)[nH]c2c1
→ 1 | -5 | 108 | 97
> CNC(=O)C12CCC(C)(c3nc4cc(C)c(C)cc4nc31)C2(C)C (configuration not stated)
→ -10 | -6 | 104 | 101
> CCOC(=O)c1cc(-c2ccc(OC)c(S(=O)(=O)N3CCCCC3)c2)on1
→ -12 | 0 | 103 | 100
> N#Cc1ccc(CSc2nc(O)cc(=O)n2C2CCCC2)cc1
→ -1 | -115 | 106 | 100
> NCC1CCC(C(=O)O)CC1 (configuration not stated)
→ 7&-21 | -2&-4 | 101&102 | 97&99
> Nc1ccc(I)nc1
→ -9 | -15 | 101 | 98
> O=C(C1=NNCC1c1ccco1)c1ccccc1 (configuration not stated)
→ 10 | -57 | 101 | 102
> Nc1nc2ccc(OC(F)(F)F)cc2s1
→ 20&1 | 5&4 | 102&102 | 107&97
> CCC(C(=O)Nc1cc(C)nn1-c1nc(C)cc(C)n1)c1ccccc1 (configuration not stated)
→ -11 | -19 | 103 | 103
> COc1ccc2c(CC(=O)NCC3CCCCC3)coc2c1
→ -7 | -17 | 110 | 103
> O=C(OCCN=C1NS(=O)(=O)c2ccccc21)c1cccnc1
→ -214 | -21 | 103 | 102
> CCCOc1ccc(Cn2c(=O)oc3ccccc32)cc1
→ -6 | 3 | 101 | 101
> O=C(OCc1nc2ccccc2s1)C1COc2ccccc2O1 (configuration not stated)
→ -4 | -39 | 113 | 114
> CS(=O)(=O)N1CCCc2cc(C(=O)CSc3nnc(-c4ccncc4)n3C3CC3)ccc21
→ -5 | 1 | 107 | 106
> Cc1ccc(SC2=NS(=O)(=O)c3ccccc32)c(C)c1
→ -8 | -21 | 105 | 103
> Nc1nnc(C(F)(F)C(F)(F)C(F)(F)F)s1
→ 7 | -9 | 98 | 100
> O=C1OC(c2cccs2)=N/C1=C\c1cccc(F)c1
→ 95 | · | 86* | 88*
> Cn1cccc1/C=C1\CC/C(=C\c2cccn2C)C1=O
→ 22 | -30 | 175 | 107
> CC(=O)Nc1sc(C)c(C)c1C(=O)OCC(=O)N1CCOCC1
→ 8 | -13 | 103 | 101
> Cc1ccc2[nH]cc(NC(=O)N(C)Cc3ccccc3)c(=O)c2c1
→ 117 | -16 | 99 | 101
> O=C(Cn1c(C(=O)NC2CCCCC2)cc2sccc21)c1ccccc1
→ 0 | 14 | 100 | 101
> C[N+](C)(CCO)CCn1cnc2c(N)ncnc21
→ 3 | -22 | 100 | 99
> COC(=O)COc1ccc2ccccc2c1
→ · | -12 | 105 | 104
> Nc1c(C(=O)OCC2CCCO2)c2nc3ccccc3nc2n1-c1ccc2c(c1)OCO2 (configuration not stated)
→ -36 | -16 | · | ·
> COC(=O)c1cc2ccc3c(c2oc1=O)CN(Cc1ccccc1)CO3
→ -90 | -237 | 123 | 107
> CCCCn1c2ccccc2c2nc3ccccc3nc21
→ 2 | -11 | 104 | 102
> Cc1ccc(/C=c2\s/c(=C\C(=O)C(C)(C)C)n(CC(=O)NCc3ccco3)c2=O)s1
→ 9 | -31 | 203 | 129
> c1cnc2c(OCC3CCCN4CCCCC34)cccc2c1 (configuration not stated)
→ · | -2 | 110 | 103
> CCN(C(C)=O)c1nc(CSc2n[nH]c(N)n2)cs1
→ 17 | 17 | 99 | 100
> Cc1csc(=Nc2ccccc2F)n1/N=C/c1ccncc1
→ 1 | -22 | 80* | 83*

One compound at a time, from the list above. Order of values: Mtb MbtI inh	Mtb MenB inh	Polio RdRp inh intensity	Polio RdRp inh
O=C(C1=NNCC1c1ccco1)c1ccccc1 (configuration not stated) in the list: 10	-57	101	102
O=C(NCc1ccccc1F)c1ccc2c(=O)n(Cc3ccco3)c(=S)[nH]c2c1 in the list: 1	-5	108	97
COC(=O)COc1ccc2ccccc2c1 in the list: ·	-12	105	104
CCCOc1ccc(Cn2c(=O)oc3ccccc32)cc1 in the list: -6	3	101	101
O=C1OC(c2cccs2)=N/C1=C\c1cccc(F)c1 in the list: 95	·	86*	88*

Other records
Value order: Mtb MbtI inh | Mtb MenB inh | Polio RdRp inh intensity | Polio RdRp inh
> CCCn1nc(C)cc1N
→ 5 | -50 | 102 | 102
> CCOC(=O)C1=C(CN(C)C2CCCCC2)NC(=O)NC1c1cccs1 (configuration not stated)
→ -1 | 1 | 99 | 100
> CC1CCCC(C)N1C(=O)COC(=O)c1cc(=O)c2ccccc2o1 (configuration not stated)
→ -12 | -7 | 101 | 102
> CN1C2C=C3[C@H](C1CC2)[C@@H](c1ccc(Cl)cc1)C(C#N)=C(N)C3(C#N)C#N (some centres not stated)
→ · | 6 | 91 | 101
> Cc1nn(-c2ccccc2)c2c1P(=O)(N1CCOCC1)/C(=C1/N(C)c3ccccc3C1(C)C)C=N2 (configuration not stated)
→ 9 | -185 | 110 | 105
> COC(=O)c1c(C)nn(C(=O)c2ccc(C)cc2)c1-c1cc(C)on1
→ -1 | 10 | 104 | 100
> C=CCc1cccc2cc(C(=O)NC)c(=O)oc12
→ -94 | -18 | 101 | 103
> O=C(Cc1cc(=O)[nH][nH]1)N/N=C/c1cccc2ccccc12
→ 2 | -73 | 101 | 106
> CCC1CCCCN1C(=O)C1CC(c2cc(Cl)c(OC)cc2OC)=NO1 (configuration not stated)
→ -29 | -17 | 103 | 105
> CCOc1ccc(CSc2n[nH]c(CC)n2)cc1
→ 3 | 8 | 98 | 104
> COc1ccc(OCCC(=O)Oc2ccc(OC)cc2)cc1
→ -10 | -25 | 101 | 97
> O=S(=O)(c1ccccc1)c1ccc(S(=O)(=O)N2CCCCC2)s1
→ -8 | 0 | 111 | 106
> Cc1c(Cl)cccc1N1C(=O)c2cccnc2C1=O
→ -4 | 8 | 103 | 100
> Cc1ccccc1Cn1ccc(NC(=O)CCSc2nc(-c3ccco3)cc(C(F)(F)F)n2)n1
→ 4 | -4 | 103 | 102
> CCOc1ccc(C(=O)OCC(=O)Nc2ccc(N3CCOCC3)cc2)cc1
→ 12 | -16 | 96 | 99
> CCC/C(O)=C1\C(=O)CC(C)(C)CC1=Nc1ccncc1
→ 8 | -47 | 98 | 104
> COC(=O)N/N=C\c1ccc(OC(=O)c2ccco2)cc1
→ 114 | -7 | 102 | 103
> CC1CC(Nc2ccccc2)c2ccccc2N1C(=O)c1ccncc1 (configuration not stated)
→ -2 | -9 | 96 | 100
> O=C(COc1ccc(Cl)cc1Cl)Nc1nc2ccccc2[nH]1
→ -4 | · | 106 | 104
> O=c1c2oc3ccccc3c2n(Cc2ccccc2)c(=O)n1Cc1ccccc1
→ -14 | -19 | 107 | 101
> Cc1cc(N2CCCC2=O)c(NC(=O)C2CCCCC2)cc1NC(=O)C1CCCCC1
→ -10 | 12 | 102 | 101
> CCOC(=O)c1ccc(-c2cccc(C(F)(F)F)c2)o1
→ 19 | 2 | 104 | 101
> COCCn1c(SCc2nc3ccccc3c(=O)[nH]2)nnc1-c1ccncc1
→ 11 | -23 | 102 | 101
> CN(CC(=O)Nc1ccc(F)cc1)C(=O)CSc1nnc2n1CCCCC2
→ 0 | -15 | 105 | 102
> CCS(=O)(=O)N1Cc2ccccc2CC1C(=O)OCc1ccc(C#N)cc1 (configuration not stated)
→ -15 | 2 | 110 | 103
> CCOc1ccc(N2C(=O)CC(Sc3nccc(C)n3)C2=O)cc1 (configuration not stated)
→ 32 | -10 | 104 | 104
> CCS(=O)(=O)NCCc1sc(C)nc1C
→ 22 | 2 | 105 | 97
> COc1ccc(C(=O)Sc2ccc(C)cc2)cc1OC
→ -8 | 2 | 104 | 100
> O=C(O)C1C2CCC(CC2)C1C(=O)NCc1ccccc1 (configuration not stated)
→ 1 | -3 | 96 | 97
> CCN(CC)c1ccc(CNc2ccc3c(c2)ncn3C(C)(C)C)cc1
→ 133 | -9 | 97 | 101
> Cc1c(N=C2SCC(=O)N2/N=C\c2ccc(Br)cc2)c(=O)n(-c2ccccc2)n1C
→ 3 | 4 | 104 | 101
> COc1ccc(CN(Cc2ccc(C(=O)NO)cc2)S(=O)(=O)c2ccc3c(c2)OCCO3)cc1OC
→ -23 | 2 | 102 | 101
> CCCCC(=O)Nc1cc(C)c2c(=O)oc3ccccc3c2n1
→ 4 | 1 | 114 | 103
> NNC(=O)c1cccs1
→ 0 | 9 | 102 | 102
> CC(C)CC(NC(=O)c1ccc(Cl)cc1Cl)C(=O)N1CCN(c2ncccn2)CC1 (configuration not stated)
→ -4 | -12 | 104 | 102
> CC(Nc1ccc(N2CCOCC2)cc1)C(=O)Nc1ccc(F)cc1Cl (configuration not stated)
→ -15 | 3 | 109 | 105
> COc1cc2[nH]c(=S)n(CCc3ccccc3)c(=O)c2cc1OC
→ -3 | -31 | 103 | 103
> O=C(c1cc(C2CC2)on1)N1CCc2ccccc2C1
→ -1 | -1 | 108 | 98
> CSc1nnc2c(n1)OC(c1ccccc1)Nc1ccccc1-2 (configuration not stated)
→ 7 | -18 | 104 | 98
> COc1ccc([C@@H]2CC(=O)c3c(O)cc(O[C@@H]4OC(CO[C@@H]5OC(C)[C@H](O)[C@H](O)C5O)[C@@H](O)[C@@H](O)C4O)cc3O2)cc1O (some centres not stated)
→ -2 | -5 | 99 | 101
> CC1CCN(C(=O)c2ccc3c(SCC(=O)O)c4c(nc3c2)CCCC4)CC1
→ 7 | -28 | 99 | 99
> N#C/C(=C/c1ccc(-c2cc(C(=O)O)ccc2Cl)o1)C(=O)NCCc1c[nH]c2ccccc12
→ 24 | -247 | 105 | 103
> C(=N\N1CCN(c2ccccn2)CC1)/c1ccccn1
→ 11 | -2 | 97 | 102

4 compounds out of the list, arranged by molar mass, high to low:
Value order: Mtb MbtI inh | Mtb MenB inh | Polio RdRp inh intensity | Polio RdRp inh
> O=S(=O)(c1ccccc1)c1ccc(S(=O)(=O)N2CCCCC2)s1
→ -8 | 0 | 111 | 106
> CCOC(=O)c1ccc(-c2cccc(C(F)(F)F)c2)o1
→ 19 | 2 | 104 | 101
> c1ccc2cc(Nc3ncnc4[nH]ncc34)ccc2c1
→ -8 | -24 | 105 | 102
> Nc1nc2ccc(OC(F)(F)F)cc2s1
→ 20&1 | 5&4 | 102&102 | 107&97
